# Screens deposited in PubChem by ICCB-Longwood Screening Facility, Harvard Medical School.
# Polio RdRp inh: inhibitors of poliovirus RNA polymerase binding and polymerization; P03300; poliovirus polymerase elongation, fluorescence polarization; stronger effect = lower value; % elongation, % (compound at 16.7 µg/mL); actives 0.66% (n = 150,000); AID 588519; in the data active = % elongation below about 90%; also: some results filed as inactive read as strong as hits
# Target sequence (P03300 1749-2209 limits assumed): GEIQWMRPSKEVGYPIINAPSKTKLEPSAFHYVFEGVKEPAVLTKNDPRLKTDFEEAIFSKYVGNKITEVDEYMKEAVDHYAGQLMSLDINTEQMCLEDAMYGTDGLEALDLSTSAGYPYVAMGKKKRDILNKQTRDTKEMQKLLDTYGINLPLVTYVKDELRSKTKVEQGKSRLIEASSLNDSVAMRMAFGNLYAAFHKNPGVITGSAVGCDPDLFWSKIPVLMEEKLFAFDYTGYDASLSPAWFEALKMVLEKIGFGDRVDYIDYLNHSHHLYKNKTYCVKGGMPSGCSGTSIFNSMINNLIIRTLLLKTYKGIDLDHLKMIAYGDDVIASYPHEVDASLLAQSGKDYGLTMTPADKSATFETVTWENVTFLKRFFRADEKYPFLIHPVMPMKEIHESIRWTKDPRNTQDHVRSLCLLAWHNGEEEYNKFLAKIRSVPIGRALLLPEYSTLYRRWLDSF
# Polio RdRp inh intensity: further read-out of Polio RdRp inh, marked with its call; % elongation; measured here: total intensity read-out; formula for this scale not given here;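 total fluorescence in place of polarization; lower means less elongation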
# Starred values were filed as active, the others as inactive. This is a subset. The share of hits here may be higher or lower than overall.
SMILES,Polio RdRp inh,Polio RdRp inh intensity
Cc1cc(=O)n(CC(=O)NCc2ccc(OC(C)C)cc2)c2c1c(C)nn2-c1cccc(F)c1,108,108
COc1cccc2c1Oc1ncccc1N(C(=O)CCC(=O)NCc1ccccc1Cl)C2,108,113
CCC(=O)N1CCc2cc(S(=O)(=O)NC(Cc3ccccc3)C(=O)NCc3ccc(F)cc3)ccc21 (configuration not stated),107,109
COc1ccc(Br)cc1CNC(=O)C1CCN(c2nnc(-n3cccc3CNc3ccc(C)cc3)s2)CC1,106,108
CCn1c(=O)cc(OCC(=O)Nc2ccccc2Cl)c2ccccc21,102,88
COC(=O)c1sccc1S(=O)(=O)N(CC(=O)NCc1ccc(C)cc1)c1ccccc1,104,111
COc1ccc(-c2c3c(=O)n(C)c(=O)n(C)c3c3c(-c4ccc(C)cc4)nc4ccccc4n23)cc1,108,110
CCCCN(CC)CCCNC(=O)Cn1ncc2c3ccccc3n(C)c2c1=O,103,101
COc1cccc(NC(=O)N2CCC(n3c(C)nc4cccnc43)CC2)c1,100,109
Cc1ccccc1C(=O)Nc1c(C)nc(Nc2ccccc2)nc1Nc1ccccc1,111,109
O=C(NC1CCCCC1)c1ccc(CSc2nc3cccnc3n2Cc2cccc(F)c2)cc1,115,118
Cc1nc2nc(SCC(=O)NC3CCC(C)CC3)nn2c(C)c1Cc1ccccc1 (configuration not stated),102,104
CC(C)(C)CC(=O)NC1CC(=O)N(c2ccc3c(c2)OCCO3)C1 (configuration not stated),104,107
CCOc1ccccc1NC(=O)CSc1ccc2nnc(CCNS(=O)(=O)c3ccccc3)n2n1,113,115
Cn1c(=O)c2cc(C(=O)NCCCN3CCN(c4ccccc4F)CC3)sc2c2ccccc21,105,108
Cc1cc(Br)ccc1NC(=O)c1cc2c(=O)n(C)c3cc(Cl)ccc3c2s1,106,109
Cc1ccc(NC(=O)c2nc(S(=O)(=O)Cc3cccc(C)c3)ncc2Cl)cc1,107,109
CC1=C(c2ccc(Cl)cc2)S(=O)(=O)N=C1N1CCN(c2cccc(C(F)(F)F)c2)CC1,100,102
CCOc1ccc(-n2c(Cc3ccccc3)nnc2SCc2nc(-c3cccs3)no2)cc1,107,111
COc1ccc(NC(=O)c2c(N)c(C(=O)c3ccc(OC)cc3)n3ccccc23)cc1,101,104
COc1ccccc1NC(=O)C1=C(C)Nc2nc(-c3ccco3)nn2C1c1ccccc1 (configuration not stated),104,105
Cc1ccc(NC(=O)C(=O)NCC(c2cccnc2)N2CCOCC2)cc1Cl (configuration not stated),110,107
CCOc1ccc(CN2CCc3nc(N4CCN(c5ccccc5OC)CC4)ncc3C2)cc1OC,102,96
CCc1cccc(NC(=O)CN2c3ccccc3S(=O)(=O)c3ccccc32)c1,104,113
COc1ccc(OC)c2sc(N3CCN(C(=O)C4CC4)CC3)nc12,108,110
CCN(CC)S(=O)(=O)c1ccc2c(c1)c(=O)c(C(=O)NCCc1ccccc1)cn2C,107,104
COc1ccccc1N1CCN(C(=O)c2cc3c(=O)oc4ccccc4c3s2)CC1,106,105
COc1ccc(N2CC(NC(=O)c3cccs3)CC2=O)cc1OC (configuration not stated),108,110
Cc1ccc(NS(=O)(=O)c2ccc3[nH]c4c(c3c2)CCCC4)c(C)c1,104,103
CC(C)(C)c1ccc(C(=O)N2CCN(CCc3ccccn3)CC2)cc1,106,105
CC(C)(C)C1CCc2nc(NC(=O)COc3ccc(F)cc3)sc2C1 (configuration not stated),96,91
CCc1ccc(CNC(=O)C2CCN(c3nnc(-n4c(C)ccc4C)s3)CC2)cc1,106,107
CCN(C(=O)CSc1nc2ccccc2n1Cc1ccccc1C#N)c1ccccc1,106,108
CCOC(=O)N1CCN(C(=O)CN(c2cc(C)ccc2OC)S(=O)(=O)c2ccc(C)cc2)CC1,101,101
Cc1cccc(OCc2nnc(-c3ccccc3)o2)c1,105,101
O=c1c2ccccc2nc(N2CCN(c3cccc(Cl)c3)CC2)n1-c1ccccc1,106,107
COc1cccc(CNC(=O)CCn2nc(C)c3c(C)n(-c4ccccc4)nc3c2=O)c1,103,107
COc1cccc(C(=O)Nc2ccc(-c3nc4ccccc4s3)cc2Cl)c1,98,99
COc1ccc(OC)c(-c2cc(C(=O)NC(C)c3ccccc3)no2)c1 (configuration not stated),106,108
O=C(CCCn1c(=O)c2cccn2c2ccccc21)NCc1ccccc1Br,113,111
CCOc1cc2sc(N3CCC(C(=O)Nc4cc(C)cc(C)c4)CC3)nc2cc1Br,114,109
COc1ccccc1-c1cc(C(=O)N2CCCCC2C)no1 (configuration not stated),106,112
Cc1ccc(NC(=O)CCC(=O)N2Cc3ccccc3Oc3ncccc32)cc1F,101,103
CCOC(=O)C1CCN(CCC(=O)Nc2ccc(OC)cc2)CC1,102,104
CCC(Sc1nnc(C)n2c1cc1occc12)C(=O)Nc1ccccc1OC (configuration not stated),112,109
Cc1ccnc(NS(=O)(=O)c2ccc(NC(=O)c3nc(SC(C)C)ncc3Cl)cc2)n1,110,112
Cc1cccc(NC(=O)Cn2ncc3c4ccccc4n(Cc4ccccc4)c3c2=O)c1C,107,111
Cc1ccc(C)c(N2CCN(C(=O)c3c(C)oc4nc(C)nc(N5CCOCC5)c34)CC2)c1,96,102
Cc1ccc(C(=O)c2oc3ccccc3c2NC(=O)c2nc(S(C)(=O)=O)ncc2Cl)cc1F,116,117
Cc1ccccc1CSc1nc2c(sc3ccccc32)c(=O)n1CCCC(=O)NCCCOC(C)C,107,113
Cc1ccc2nc(-c3c[nH]c4ccccc34)c(Nc3ccc(F)cc3)n2c1,107,113
O=S(=O)(c1ccc2[nH]c3c(c2c1)CCCCC3)N1CCN(c2ccccc2)CC1,105,112
CCC(=O)N1CCc2cc(Br)cc(S(=O)(=O)Nc3ccccc3C(=O)OC)c21,107,104
CCOCCCNC(=O)C(c1ccc(Cl)cc1)N(Cc1ccc2c(c1)OCO2)C(=O)c1ccc(NC(C)=O)cc1 (configuration not stated),98,93
COc1cccc(C(=O)Nc2ccccc2C(=O)OCc2cc(=O)n3c4c(sc3n2)CCCC4)c1,104,109
Cc1ccc(C)c(N2CCN(C(=O)c3ccc(-c4nc(COc5ccccc5)c(C)o4)cc3)CC2)c1,100,95
Cc1nn(C)c2c1c(C(F)(F)F)cc(=O)n2C(C)C(=O)NCCc1ccccc1 (configuration not stated),101,104
CCN(CCCNC(=O)c1nn(-c2ccc(C)cc2)c(=O)c2c1c1ccccc1n2C)c1ccccc1,109,107
COc1ccc(-n2nnc(-c3nc(-c4ccccc4C)no3)c2N)cc1Cl,110,112
Cc1ccc(S(=O)(=O)NCC(c2ccc(N(C)C)cc2)N2CCCC2)cc1 (configuration not stated),105,112

# 4 compounds from above, sorted by count of non-hydrogen atoms, rising:
SMILES,Polio RdRp inh,Polio RdRp inh intensity
Cc1ccc2nc(-c3c[nH]c4ccccc34)c(Nc3ccc(F)cc3)n2c1,107,113
Cc1ccc(NC(=O)C(=O)NCC(c2cccnc2)N2CCOCC2)cc1Cl (configuration not stated),110,107
COc1ccccc1NC(=O)C1=C(C)Nc2nc(-c3ccco3)nn2C1c1ccccc1 (configuration not stated),104,105
COc1ccc(-c2c3c(=O)n(C)c(=O)n(C)c3c3c(-c4ccc(C)cc4)nc4ccccc4n23)cc1,108,110

# The results go on.
SMILES,Polio RdRp inh,Polio RdRp inh intensity
CCC(C)S(=O)(=O)c1oc(-c2cccs2)nc1S(=O)(=O)c1ccccc1 (configuration not stated),101,91
Cc1cccc(C)c1-n1ncc(C(=O)Nc2ccc3c(c2)OCO3)c1C1CCN(C(=O)OC(C)(C)C)CC1,107,112
CCCn1c(/C=C/c2ccccc2)nc2ccccc21,107,114
CCOc1ccc(Cn2c(=O)sc3ccccc32)cc1,107,108
Cc1ccccc1C(=O)NNc1ncnc2c1cnn2-c1cccc(Cl)c1,103,108
COc1ccccc1Cn1cc(C(=O)c2ccc(C)cc2)c(=O)c2cc(C)ccc21,111,108
CCc1ccccc1NC(=O)Nc1cc(C(=O)NCc2ccc(C)cc2)ccc1N1CCCC1,110,102
Cn1nc(C(=O)NCc2ccccc2)c2c1-c1ccccc1S(=O)(=O)C2,106,107
CC1CCCCN1CCCNC(=O)c1sc2ncccc2c1-n1cccc1 (configuration not stated),109,117
COc1ccc2nc3oc(C(=O)Nc4cccc(C(F)(F)F)c4)cc3cc2c1,106,109
Cc1ccc(-n2nc(C(=O)N3CCC(C)CC3)c(=O)n(C)c2=O)cc1,110,106
Cc1ccccc1OCCSc1nc2ccc(NC(=O)c3cccc(F)c3)cc2s1,107,93
COc1cc(C2C(=O)N(C3CCCCCC3)CC(=O)N2Cc2ccccc2)ccc1OC(C)C (configuration not stated),106,106
COc1ccc(NC(=O)c2ccc(-c3nc(CSc4ccccc4)c(C)o3)cc2)c(OC)c1,111,110
CC1C(=O)N2CCCc3cc(S(=O)(=O)N4CCC(C(N)=O)CC4)cc1c32 (configuration not stated),99,108
COc1cccc(Cc2nc3ccccc3nc2SCC(=O)N2CCCc3ccccc32)c1,110,102
COCCNS(=O)(=O)c1cc(-c2nn3c(C)nnc3c3ccccc23)ccc1C,104,109
Cc1ccc(CNc2nc(-c3ccco3)nn2S(C)(=O)=O)cc1,110,108
O=C(COCc1cc(-c2ccc3c(c2)OCO3)on1)NCc1ccccc1Cl,104,102
COc1ccc(NC(=O)CCS(=O)(=O)c2ccc3nc(C)sc3c2)cc1Cl,103,107
COc1ccc(NC(=O)CSc2nc(-c3ccc(OC)c(OC)c3)[nH]c2-c2ccc(C)cc2)cc1,107,101
Cn1c(=O)c2c(nc(N3CCOCC3)n2Cc2ccccc2)n(C)c1=O,111,116
CCOC(=O)c1ccc(N2CCN(c3cc(C)ccc3C)CC2)c(NC(=O)Nc2ccc(CC)cc2)c1,114,115
Cc1cc(C)c(Nc2ncnc3c2cnn3C)c(C)c1,101,108
COc1cc(NC(=O)c2nc3ccccc3n(C)c2=O)cc(OC)c1OC,105,102
O=S(=O)(c1ccc(Cl)cc1)c1nc(-c2cccc(Br)c2)oc1NCc1ccccc1,105,107
CC(C)CN(c1ccccc1)S(=O)(=O)c1nnc(NC(=O)c2ccco2)s1,110,114
CC(NC(=O)c1nn(C)c2c1CSc1ccccc1-2)c1ccccc1 (configuration not stated),110,112
CCCCCCNC(=O)c1c[nH]c2ccc(S(=O)(=O)N(C)c3ccc(C(C)C)cc3)cc2c1=O,113,105
Cc1noc(/C=C/c2ccccc2F)c1S(=O)(=O)N1CCC(C(=O)N2CCOc3ccccc32)CC1,105,106
CCC(=O)Nc1cc(-c2cccc(C)c2)nn1-c1ccccc1,103,111
Cc1ccc(C)c(NC(=O)CCc2nc(-c3ccc(C(C)(C)C)cc3)no2)c1,109,108
Cc1ccc(NC(=O)C(C)Sc2nc(-c3ccccc3)c(C#N)c(=O)[nH]2)c(C)c1 (configuration not stated),101,100
CCOC(=O)c1ccc(NC(=O)CSc2nccn2-c2ccc(OCC)cc2)cc1,104,106
O=C1c2[nH]nc(-c3ccccc3O)c2C(c2cccc(Br)c2)N1Cc1ccncc1 (configuration not stated),106,109
O=C(O)c1ccc(Nc2nc3ccccc3n3cnnc23)cc1,107,124
COc1ccccc1CNC(=O)Nc1ccc2c(c1)N(C)C(=O)c1ccccc1S2,100,109
CC1CCN(S(=O)(=O)c2ccc3c(c2)c(=O)c(C(=O)NC(C)c2ccccc2)cn3C)CC1 (configuration not stated),106,108
COC(=O)c1c(N)n(-c2ccc(OC)c(OC)c2)c2nc3ccccc3nc12,107,110
Cc1ccc(Cn2ccnc2SCC(=O)Nc2nnc(C)s2)cc1,104,108
CCOc1ccc(CNCCCSc2nnnn2C)cc1OC,109,109
Cc1cccc(C)c1-n1ncc(C(=O)N2CCN(c3ncccn3)CC2)c1C1CCN(C(=O)OC(C)(C)C)CC1,109,109
COc1ccc(C2CC(=O)N(CC(=O)Nc3cccc(C)c3C)c3ccccc3S2)cc1OC (configuration not stated),104,108
COc1cc(NC(=O)CSc2nc(-c3ccc(C(C)C)cc3)no2)cc(OC)c1,111,108
CCOc1ccc(NC(=O)CSc2nc3nc(C)c(Cc4ccccc4)c(C)n3n2)cc1,113,111
COc1ccc(CN2C(=O)N(c3ccc(F)cc3)C(=O)C2CC(=O)Nc2ccccc2)cc1 (configuration not stated),102,105
O=C(Nc1cc(-c2nc3cc(Cl)ccc3o2)ccc1Cl)c1cc([N+](=O)[O-])ccc1N1CCOCC1,105,104
Cc1ccc(S(=O)(=O)Nc2cc3c(cc2C)n(C)c(=O)c(=O)n3C)c(C)c1,111,114
CCOC(=O)c1[nH]c(C)c(C(=O)NCc2ccc(F)cc2)c1C,112,113

# Of the compounds above, 15 have fluorine.
SMILES,Polio RdRp inh,Polio RdRp inh intensity
Cc1cc(=O)n(CC(=O)NCc2ccc(OC(C)C)cc2)c2c1c(C)nn2-c1cccc(F)c1,108,108
CCC(=O)N1CCc2cc(S(=O)(=O)NC(Cc3ccccc3)C(=O)NCc3ccc(F)cc3)ccc21 (configuration not stated),107,109
O=C(NC1CCCCC1)c1ccc(CSc2nc3cccnc3n2Cc2cccc(F)c2)cc1,115,118
Cn1c(=O)c2cc(C(=O)NCCCN3CCN(c4ccccc4F)CC3)sc2c2ccccc21,105,108
CC1=C(c2ccc(Cl)cc2)S(=O)(=O)N=C1N1CCN(c2cccc(C(F)(F)F)c2)CC1,100,102
CC(C)(C)C1CCc2nc(NC(=O)COc3ccc(F)cc3)sc2C1 (configuration not stated),96,91
Cc1ccc(NC(=O)CCC(=O)N2Cc3ccccc3Oc3ncccc32)cc1F,101,103
Cc1ccc(C(=O)c2oc3ccccc3c2NC(=O)c2nc(S(C)(=O)=O)ncc2Cl)cc1F,116,117
Cc1ccc2nc(-c3c[nH]c4ccccc34)c(Nc3ccc(F)cc3)n2c1,107,113
Cc1nn(C)c2c1c(C(F)(F)F)cc(=O)n2C(C)C(=O)NCCc1ccccc1 (configuration not stated),101,104
COc1ccc2nc3oc(C(=O)Nc4cccc(C(F)(F)F)c4)cc3cc2c1,106,109
Cc1ccccc1OCCSc1nc2ccc(NC(=O)c3cccc(F)c3)cc2s1,107,93
Cc1noc(/C=C/c2ccccc2F)c1S(=O)(=O)N1CCC(C(=O)N2CCOc3ccccc32)CC1,105,106
COc1ccc(CN2C(=O)N(c3ccc(F)cc3)C(=O)C2CC(=O)Nc2ccccc2)cc1 (configuration not stated),102,105
CCOC(=O)c1[nH]c(C)c(C(=O)NCc2ccc(F)cc2)c1C,112,113
